# MgrA DNA FP = modulators of Staphylococcus aureus MgrA DNA binding | fluorescence polarization | inhibition, %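 (about 10 µg/mL by stock and volumes)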 | 0.13% of 84,000 active | AID 602314;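 active = above 50% in either of two replicates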;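 note: 0% = protein plus DNA without compound and 100% = DNA alone without protein; higher means less MgrA bound to DNA so lower polarization; one replicate is shown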
# Sa helicase inh = S. aureus DNA helicase inhibition | 0.05% of 120,000 active | AID 485395 | purified S. aureus helicase, fluorescence unwinding assay; about half of the hits fall short of the stated cut | inhibition, %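 (tested at about 80 µM)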;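 active = both duplicates at 50% or more, or one of them with a favoured structure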;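 note: 0% = mean of negative control wells and 100% = mean of positive control wells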
# An asterisk follows results filed as active; / = not tested or not shown; & = joins results of further samples. The list is partial; the hit share may differ from the screen's.
SMILES,MgrA DNA FP,Sa helicase inh
O=C(CN1C(=O)S/C(=C\c2ccc(O)cc2)C1=O)c1ccccc1,/,-16
Cc1ccc(C)n1-c1ccccc1C(=O)O,/,36
Cc1ccc(-n2[nH]c(C)c(C=O)c2=O)cc1C,-0.3,11
O=C(Nc1ccccc1)Oc1ccc2sc(=O)oc2c1,8.1,8
O=C1N=c2ccc(Br)cc2=C1c1sc(=S)n(-c2cccc(Br)c2)c1O,0.0,-1
N=C1C(c2nc3ccccc3[nH]2)=C(O)CN1NC(=O)COc1cccc(F)c1,/,8
CCOC(=O)c1cn(CC(=O)Nc2cccc(OC)c2)nn1,/,9
COc1ccc(C(=O)NC(C(=O)Nc2ccc3c(c2)OCO3)C(C)C)cc1 (stereo not drawn),/,-11
O=C(OCc1ccccc1Oc1ccccc1)c1ccccn1,/,12
O=C1CCCC2=C1C(c1cccc(O)c1)C1=C(N2)c2ccccc2C1=O (stereo not drawn),/,-9
Cc1ccoc1C(=O)Nc1cccc(Oc2ccccc2)c1,0.7,8
COC(=O)CSC1=C(C#N)C(c2ccc(Cl)cc2Cl)CC(=O)N1 (stereo not drawn),/,-8
N#Cc1c(C(F)(F)F)cc(-c2cccs2)[nH]c1=S,0.0,/
O=C1CCC(=O)N1c1ccc(-c2nc3ccccc3c(=O)o2)cc1,/,12
CSc1nc2ccc3nc(NC(=O)c4ccccc4C)sc3c2s1,1.0,3
Cc1ccccc1C(N)CC(=O)O (stereo not drawn),0.8,/
CC(C)Oc1ccc(C(=O)NCC(=O)Nc2ccccc2N2CCOCC2)cc1,/,8
OCCN1CCN(CCCN2c3ccccc3Sc3ccc(C(F)(F)F)cc32)CC1,-5.6&-0.6,/
O=C(c1ccc(Cn2cc(Br)cn2)cc1)N1CCN(C(=O)c2ccco2)CC1,/,-1
COc1cccc(-c2nn(-c3ccccc3)cc2C(=O)n2nnc3ccccc32)c1,1.4,12
O=C1/C(=C\c2cccc(Cl)c2)Cc2ccccc21,1.9,-12
Cc1ccc(S(=O)(=O)N2CC=C(C(=O)Nc3cccc(F)c3)CC2)cc1,/,2
COc1ccccc1NC(=O)CN1C(=O)/C(=C/c2cc(OC)c(OC)c(OC)c2)SC1=S,-2.3,/
CCOC(=O)c1oc2ccc(Br)cc2c1Cn1nc(C(=O)O)c2ccccc2c1=O,/,18
Cc1c(C(=O)NN)nn(-c2ccc(F)cc2)c(=O)c1C#N,/,-16

# Arranged by formula weight (ascending): some entries from above
SMILES,MgrA DNA FP,Sa helicase inh
CCOC(=O)c1cn(CC(=O)Nc2cccc(OC)c2)nn1,/,9
OCCN1CCN(CCCN2c3ccccc3Sc3ccc(C(F)(F)F)cc32)CC1,-5.6&-0.6,/
O=C(c1ccc(Cn2cc(Br)cn2)cc1)N1CCN(C(=O)c2ccco2)CC1,/,-1

# A few values from the list:
# CC(C)Oc1ccc(C(=O)NCC(=O)Nc2ccccc2N2CCOCC2)cc1 in Sa helicase inh shows 8
# COc1ccc(C(=O)NC(C(=O)Nc2ccc3c(c2)OCO3)C(C)C)cc1 (stereo not drawn) in Sa helicase inh shows -11
# CCOC(=O)c1cn(CC(=O)Nc2cccc(OC)c2)nn1 in Sa helicase inh shows 9

# Further entries:
SMILES,MgrA DNA FP,Sa helicase inh
Cn1c2c(c(=O)[nH]c1=O)C(C(F)(F)F)(C(F)(F)F)NC(=O)N2,0.9,-11
N#Cc1cccc(NC(=O)COC(=O)Cc2ccccc2)c1,/,-3
c1cncc(NCc2ccco2)c1,/,-9
Cn1c(=O)c2c(O)c(C=NCc3ccccc3)c(=O)n(C)c2n(C)c1=O,1.3,/
CCCNC(=O)CCn1c(=S)oc2ccccc21,/,19
COc1ccc2c(c1)C1(NNc3ccccc3O1)C(=O)N2 (stereo not drawn),/,32
Nc1nc2c(ncn2COCCOC(=O)c2ccccc2)c(=O)[nH]1,/,15
Cc1cccc(Cc2cnc(NC(=O)CN3CSCC3=O)s2)c1,/,-3
CCCc1cc(N2CCN(c3ccccn3)CC2)n2cnnc2n1,/,8
Oc1[nH]c2ccccc2c1C=NCCc1ccccc1,2.0,4
COC(=O)c1ccc(CSc2nnc(COc3ccccc3Cl)n2C2CC2)o1,/,-6
COC(=O)C1=C(N)N(c2ccc(S(N)(=O)=O)cc2)C2=C(C(=O)CCC2)C1c1ccc(OC)cc1 (stereo not drawn),-3.0,6
Cc1cc(C)c(S(=O)(=O)N(C)c2ccccc2)c(C)c1,-0.7,9
CC(C)(C)/C=N/NC(=O)c1nc(-c2c(F)cccc2Cl)no1,/,31
CC(=O)N1CCN(C(=O)C23CC4CC(C)(CC(C)(C4)C2)C3)CC1,/,4
Oc1ccccc1C1N(Cc2ccccc2)CCN1Cc1ccccc1,0.7,9
CC(OC(=O)c1ccc(-n2cnnn2)cc1)c1ccccc1Cl (stereo not drawn),/,-18
CCn1c(O)c(N=NC(=O)c2ccccc2O)c2ccccc21,6.6,11
CSc1nnc(NC(=O)c2nc(S(=O)(=O)Cc3ccc(F)cc3)ncc2Cl)s1,/,1
O=C(COC(=O)c1ccc2c(=O)n3c(nc2c1)CCCCC3)c1ccc(F)cc1,/,1
Clc1ccc(-c2nnc(N3CCOCC3)o2)cc1,1.4,/
COc1ccc(-c2cnc(N)s2)cc1,-0.3,2
CSc1ncc(Cl)c(C(=O)Nc2ccc(S(=O)(=O)N3CCOCC3)cc2)n1,/,-24
O=C(Cn1c(=O)cnc2ccccc21)N1CCN(c2ccccc2)CC1,/,0
CCN(CC)S(=O)(=O)c1ccc(N=Nc2c(C)[nH]n(-c3ccccc3)c2=O)cc1,/,-11
# Carrying on:
SMILES,MgrA DNA FP,Sa helicase inh
CCC(=O)N1CCc2cc(OC)c(OC)cc2C1COc1ccc(F)cc1 (stereo not drawn),/,-2
Cc1cccc(N2C(=O)c3sc4nccc(=O)n4c3C2=O)c1,6.8,4
CC(=O)Oc1ccccc1N(C(C)=O)S(=O)(=O)c1ccc(C)cc1,1.2,1
O=c1oc2ccc(O)cc2s1,/,10
CCc1ccc(Cc2cnc(NC(=O)C3=NCCN3)s2)cc1,/,19
O=C(CCn1nnc2ccccc21)OCC(=O)c1ccc(Cl)c(Cl)c1,-2.8,1
COc1cccc2c(=O)n(CC(=O)N3CCCCC3)ccc12,/,15
COc1cccc(-c2cc(C(=O)NC(C)C)no2)c1,5.4,5
O=S(=O)(c1ccccc1)N(Cc1ccccc1)c1ccccn1,-1.5,20
CCS(=O)(=O)C(=C1Nc2ccccc2N1)S(=O)(=O)CC,-3.2,7
Cc1ccc(Nc2n[nH]c(=O)c3ccccc23)cc1C,/,-15
COc1ccccc1CNC(=O)C(NS(=O)(=O)c1cccc2nsnc12)c1ccccc1 (stereo not drawn),/,14
Cc1sc2ncnc(NCc3cccnc3)c2c1C,-1.3,5
O=C(COC(=O)C1CCC1)c1cc2ccccc2o1,-0.1,-26
Cc1ncc(CO)c2cc(C(N)=S)c(=Nc3ccc(S(N)(=O)=O)cc3)oc12,/,-21
CCN1CCCCCC1CO (stereo not drawn),1.3,15
NCC1(N2CCCCC2)CCCCC1,-1.4,16
CCOC(=O)c1c(C)c(C(=O)N2CCCCC2)c(C)n1C,/,15
Cc1nc(Cc2nnc(SCCCn3c(=O)[nH]c4ccccc43)o2)cs1,/,4
COC(=O)c1c(CC(C)C)csc1N,/,25
CCSC1=C(C#N)C(c2ccccc2Cl)C(C#N)=C(N)N1 (stereo not drawn),/,12
CCN(CC)C(=O)c1sc2ccccc2c1Cl,-1.3,/
Cn1cnc2cc(NC(=O)c3cccs3)ccc21,-2.5,6
CC1CCCCN1C(=O)Cn1c(=O)n(-c2ccccc2)c(=O)c2c3c(sc21)CCC3 (stereo not drawn),/,1
O=C(/C=C/C(=O)N1CCN(c2ccccc2F)CC1)N1CCN(c2ccccc2F)CC1,-1.1,-12

# Arranged by the number under MgrA DNA FP (high to low): five of the compounds above
molecule | MgrA DNA FP
Cc1cccc(N2C(=O)c3sc4nccc(=O)n4c3C2=O)c1 | 6.8
CCN1CCCCCC1CO (stereo not drawn) | 1.3
O=C(/C=C/C(=O)N1CCN(c2ccccc2F)CC1)N1CCN(c2ccccc2F)CC1 | -1.1
Cc1sc2ncnc(NCc3cccnc3)c2c1C | -1.3
O=S(=O)(c1ccccc1)N(Cc1ccccc1)c1ccccn1 | -1.5

# Remaining list, next part.
SMILES,MgrA DNA FP,Sa helicase inh
CCN(CC)c1ccc2c(C)cc(=O)oc2c1,3.1,2
COc1ccc(OCC(O)CN2CCCCC2)cc1 (stereo not drawn),/,-31
CCS(=O)(=O)Cc1ccccc1,-1.2,/
COCCCn1c(-c2cccs2)nc2c(c(=O)c3ccccc3n2C)c1=O,/,16
CCOc1cc(CO)cc(Br)c1OCc1ccc(C(=O)O)cc1,/,-14
N#Cc1c(Nc2ccccc2)sc(N)c1C(=O)c1ccccc1,0.2,7
O=C(CC(NCc1cccnc1)C(=O)O)Nc1ccccc1 (stereo not drawn),/,-17
Cc1ccc(NC(c2ccc(O)cc2)P(=O)(c2ccccc2)c2ccccc2)cc1 (stereo not drawn),/,-23
CC(C)/C=N/NC(=O)c1ccccc1,0.3,3
Cc1ccc(SCc2nnc(-c3c(-c4ccccc4)noc3C)o2)cc1C,/,-11
C/C(Nc1ccccc1)=C1\C(=O)C=C(c2ccco2)CC1c1ccco1 (stereo not drawn),-0.3,-2
Cc1ccc(N2C(=O)N(CC(=O)Nc3ccccc3)c3ccccc3S2(=O)=O)cc1Cl,0.6,8
Cc1[nH]ccc(=O)c1OC(C)C(N)=O (stereo not drawn),-0.3,/
N#CCc1ccc(NC(=O)C2CCCCC2)cc1,0.4,4
COc1ccc(NC(=O)CSc2nnc3[nH]c(=O)c(C)nn23)cc1Cl,/,-9
CCC1C/C(=C\c2sccc2C)C(=O)/C(=C/c2sccc2C)C1 (stereo not drawn),1.1,9
CCCCNc1nc2ccccc2n1Cc1ccc(C#N)cc1,/,9
O=C1Nc2c(c3ccccc3oc2=O)Nc2ccccc21,/,-21
CN(C)CCNC(=O)c1ccc(-n2c(-c3ccccc3)nc3cccnc32)cc1,/,5
O=C(/C(=N\O)c1ccccc1)c1ccccc1,2.8,/
O=C(C(C(=O)N1CCCCC1)C12CC3CC(CC(C3)C1)C2)N1CCCCC1,-0.1,/
O=c1[nH][nH]c(=S)n1CC1CCCO1 (stereo not drawn),/,-4
CCCn1nc(C(=O)O)ccc1=O,/,-4
CCN(CC)S(=O)(=O)c1ccc(C(=O)Nc2nc3c(F)cc(F)cc3s2)cc1,/,5
O=c1[nH]c(CSc2nnc(Cc3cccs3)n2C2CCCCC2)nc2ccsc12,/,-15
# Next section:
SMILES,MgrA DNA FP,Sa helicase inh
Cc1cccc(-c2nc(CN3N=C(N4CCOc5ccc(Cl)cc54)CCC3=O)c(C)o2)c1,-1.4,0
Nc1cc2cc([N+](=O)[O-])ccc2oc1=O,-1.1,/
CC(Sc1cccc[n+]1[O-])C(=O)NC1CCCCC1C (stereo not drawn),/,-4
FC(F)(F)c1cccc(-c2nnc(-c3ccncc3)o2)c1,-3.5,/
c1csc(-c2noc(-c3ccno3)n2)c1,-0.7,/
CCOC(=O)c1ccccc1NC(=O)CSc1nc2c(oc3ccccc32)c(=O)n1C1CCCC1,/,-18
O=C(CSc1nc(C(F)(F)F)nc2ccccc12)N1CCNC1=O,/,-20
C=CCn1c(C(O)c2ccccc2)n[nH]c1=S (stereo not drawn),1.8,-7
CCOc1ccc(N2C(=O)CC(Sc3ncccc3C(=O)O)C2=O)cc1 (stereo not drawn),/,7
O=C(O)c1ccc2c(c1)C1c3ccccc3CC1C(c1cccc(Cl)c1)N2 (stereo not drawn),32,4
CC1CN(C(=O)c2ccccc2C(=O)c2ncc[nH]2)CC(C)O1 (stereo not drawn),/,-10
O=C1NC(=O)C2C1ON(c1ccccc1)C2c1ccccc1 (stereo not drawn),/,-23
O=C(NC1CCCCC1)N1CCN(C2CCCCC2)CC1,0.2,3
CC(C)CCNC(=O)C1CCC(Cn2c(=O)[nH]c3ccccc3c2=O)CC1 (stereo not drawn),-0.6,1
COc1cccc(CSc2nnc(-c3cc4occc4n3C)n2-c2ccccc2C)c1,/,11
Nc1ccc(-c2cc(-c3cccc(N)c3)nc(-c3ccccc3)n2)cc1,/,7
CCOC(=O)CSc1n[nH]c(=O)n1-c1ccccc1,-2.5,/
O=C(O)CCCC=C(c1ccccc1)c1ccccc1,0.6,-2
Cc1ccc(OCC(O)CNCc2ccco2)cc1C (stereo not drawn),-0.4,/
COc1cc(NS(=O)(=O)c2ccc(NC(=O)c3ccccc3)cc2)nc(OC)n1,-0.5,11
CC(C)C(C)(C#N)Nc1ccccc1 (stereo not drawn),-0.3,/
C/C(=N\NC(=O)O)c1ccc(Oc2ccccc2)cc1,/,8
CCC(=O)Cc1c(C)[nH]c2ccc(OC)cc12,1.1,/
CN(C)N1C(=O)c2ccccc2C1=O,-1.7,/
Cc1ccc(NC(=O)C(C)OC(=O)C2CCN(c3ccc(C(F)(F)F)cn3)CC2)cc1 (stereo not drawn),/,-2
Cc1nc(C(F)(F)F)ccc1C(=O)NCc1ccccc1,0.3,/
Cc1cccc2c1-c1sc(C(=O)NC3CCCC(C)C3C)cc1CO2 (stereo not drawn),-0.6,6
Cc1sc2ncnc(SCC(=O)O)c2c1C,-3.4,3
Cc1cc(C=C2C(=O)CC(C)(C)CC2=O)oc1C,1.1,/
CS(=O)(=O)N(CC(=O)NC1CC1)c1ccccc1,1.8,-5

# Single records (already shown). Order of screens: MgrA DNA FP | Sa helicase inh
# Cc1ccc(NC(=O)C(C)OC(=O)C2CCN(c3ccc(C(F)(F)F)cn3)CC2)cc1 (stereo not drawn) is entered as / | -2
# Cc1sc2ncnc(SCC(=O)O)c2c1C is entered as -3.4 | 3
# Cc1ccc(OCC(O)CNCc2ccco2)cc1C (stereo not drawn) is entered as -0.4 | /
# CCOc1ccc(N2C(=O)CC(Sc3ncccc3C(=O)O)C2=O)cc1 (stereo not drawn) is entered as / | 7
# Cc1nc(C(F)(F)F)ccc1C(=O)NCc1ccccc1 is entered as 0.3 | /

# Compound activity as filed in PubChem.
